# Source: PubChem
# Bst PK mod – Pyruvate Kinase | partly purified Bacillus stearothermophilus pyruvate kinase, luminescence ATP production; ribose 5-phosphate activator present at AC10 | Potency, µM | AID 361, 2006 | hit rate 1.2% among 51,000; in the data active means potency below about 11 µM; inconclusive means mostly about 12 µM to 25 µM; inactive means weaker than that;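 the screen sought inhibitors and activators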;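 note: potency is the fitted concentration of half-maximal effect; scaled between full activation by ribose 5 phosphate and full inhibition by luteolin; about four in five hits inhibit and the cells do not say which; series up to 57 µM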
# TsaE inh – qHTS Assay for Inhibitors of YjeE | purified YjeE, fluorescence polarisation of a bound ADP probe | Potency, µM | hit rate 0.05% among 71,000; active = well fitted falling curve; inconclusive = weaker or top-dose-only fall, or a rising curve; inactive = flat or poorly fitted curve;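 note: top concentration of the series not given in the record; excess ADP was the control for the full effect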
#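 Purified YjeE (10 uM) with BODIPY Texas Red-labeled ADP probe (2 uM); compounds pin-transferred, 15 min at room temperature. Binding inhibition read as decreased fluorescence polarization; ADP titration as control.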
# * hit, by the source's call; i = inactive; u = inconclusive; x = not tested or not shown. These rows are one share of the data. The share of hits here may be higher or lower than overall.
SMILES,Bst PK mod,TsaE inh
NC1=NC(=Nc2ccccc2)c2ccccc21,>57,i
O=C(CCCOc1ccc(Cl)cc1)N1CCCCCC1,>57,i
COc1nc(NCCC2=CCCCC2)nc(OC)n1,x,i
CN(C)CCCSc1nc2ccccc2[nH]1,x,i
CCCn1c(SCC(=O)Nc2nccs2)nnc1-c1cccnc1,>57,i
Cn1ccnc1SCC(=O)Nc1sccc1C#N,>57,i
O=C(NC1CCS(=O)(=O)C1)c1ccc(-c2ccc(Br)cc2)o1 (stereo not drawn),7.8*,i
O=C(Nc1ccc2oc(-c3ccc(F)cc3)nc2c1)c1ccccc1F,>57,i
COC(=O)CSc1nc2ccccc2o1,>57,i
COC(=O)c1ccc2c(=O)n(CCCCCC(=O)N3CCN(c4ccccc4)CC3)c(=O)[nH]c2c1,>57,i
COc1ccc(CCn2c(-c3ccco3)nc3nc4ccccc4nc32)cc1,>57,i
C=CCn1c(NCc2ccc(N(C)C)cc2)nc2ccccc21,x,i
O=C(CCOc1ccccc1)Nc1ccc(S(=O)(=O)N2CCCC2)cc1,>57,i
COC(=O)Cn1c(=N)n(CCN2CCCCC2)c2ccccc21,>57,i
Cc1sc2nc(CN3CCOCC3)nc(NS(=O)(=O)c3ccc4c(c3)OCCO4)c2c1C,>57,i
COc1cc(C2C(C(=O)c3sc(C)nc3C)=C(O)C(=O)N2CCN(C)C)cc(OC)c1OC (stereo not drawn),>26,x
O=C(CSc1nnc(-c2ccccc2)o1)Nc1ccccc1F,x,i
COc1ccc(CCNC(=O)C2CCN(S(=O)(=O)N3CCCCCC3)CC2)cc1OC,>57,i
CC1(C(=O)NC2CCCCCCC2)CCC(=O)N1Cc1cccnc1 (stereo not drawn),>57,i
Cc1ccc(CNC(=O)C2CCCN(S(C)(=O)=O)C2)cc1 (stereo not drawn),>57,i
Cc1noc(C(=O)N2CCN(c3ccc(F)cc3)CC2)c1Cl,x,i
CC(C(=O)Nc1cccnc1)N1C(=O)C2C3C=CC(C3)C2C1=O (stereo not drawn),>57,i
CC(C)OCCCn1c(=S)[nH]c2ccc(N3CCOCC3)cc2c1=O,>57,i
O=c1c(-c2cccs2)nc2cnc(N3CCNCC3)nc2n1Cc1cccs1,x,i
CCOc1ccc(NC(=O)CN2CCN(CC(=O)c3ccc(OC)c(OC)c3)CC2)cc1,>57,i
# (further entries)
SMILES,Bst PK mod,TsaE inh
C[N+]1(C)C[C@@H](O)C[C@@H]1C(=O)[O-],x,i
CCCC(=O)Nc1cc(=O)[nH]c2ncnn12,>57,i
CCN(CC)CCCN(C(=O)c1cccs1)c1nc(-c2ccc(OC)cc2)cs1,i,i
CC(C)[C@](N)(C(=O)O)c1ccccc1,x,i
Cc1c(C(=O)OCCOC(C)C)[nH]c2c1C(=O)CC(c1ccco1)C2 (stereo not drawn),x,i
Cn1c(=O)c2c(nc(SCC(=O)NCC3CCCO3)n2C)n(C)c1=O (stereo not drawn),>57,i
COc1ccc(S(=O)(=O)Nc2ccc(CC#N)cc2)cc1,>57,i
CC1CCc2[nH]nc(C(=O)O)c2C1 (stereo not drawn),>57,i
Cn1c(=O)c2[nH]c(CCCCc3nc4c([nH]3)c(=O)n(C)c(=S)n4C)nc2n(C)c1=S,x,i
CN(C)CCNS(=O)(=O)c1ccc(Cl)cc1,>57,i
CCCCOc1ccccc1/C=c1/sc2nc(-c3oc4ccccc4c3C)nn2c1=O,>26,x
Cc1ccc2nc3ccc(N4CCCC4)nn3c(=O)c2c1,i,i
NC(=O)CSc1nc(O)cc(=O)n1-c1ccccc1,>57,i
Cn1c(=O)c2c(nc(NCCCN3CCOCC3)n2Cc2ccc(Cl)cc2Cl)n(C)c1=O,>57,i
COc1cc(SC)ccc1C(=O)Nc1ccccc1C#N,>57,i
CCOc1ccc(CCN2C(=O)C3C4C=CC(C4)C3C2=O)cc1OCC (stereo not drawn),x,i
CN(C(=O)COc1cc(=O)n(C)c2ccccc12)c1ccc(Br)cc1,x,i
CC(C)CCOc1ccc(C(=O)CCNC(C)C(=O)O)cc1 (stereo not drawn),>57,i
CCOc1ccc(C(C)=O)cc1Cn1nc(C(=O)O)c2ccccc2c1=O,>57,i
CN(C)C(=O)c1ccc(-c2ccc3ncnc(Nc4ccccc4)c3c2)cc1,x,i
O=S(=O)(c1ccc2ccccc2c1)N(CC(O)CN1CCOCC1)c1ccccc1 (stereo not drawn),u,x
CN(C)c1ccc(-c2nc(-n3ccnc3)c3ccccc3n2)cc1,x,i
CC(NC(=O)c1ccccc1)(C(=O)O)C(=O)O,x,i
CC(C(=O)O)c1cccc(C(=O)c2ccccc2)c1 (stereo not drawn),>57,i
Cc1ccc(-c2[nH]nc3c2C(c2ccc(OC(=O)N4CCOCC4)cc2)C(C#N)=C(N)O3)cc1 (stereo not drawn),>57,i
# The list continues:
SMILES,Bst PK mod,TsaE inh
CCC(C)NC(=O)c1c(-c2cc(Cl)c(OC)c(Cl)c2)noc1C (stereo not drawn),x,i
O=C(Nc1ccc2c(c1)CCC2)C1COc2ccccc2O1 (stereo not drawn),>57,i
CC1CCCCC1NC(=O)c1cn(C)c2ccc(S(=O)(=O)N3CCCC3)cc2c1=O (stereo not drawn),>57,i
Cc1ccccc1CS(=O)(=O)Cc1ccc(C(=O)N2CCOCC2)o1,>57,i
CCCC(=O)Nc1ccc2c(c1)C(=O)N(CCC(=O)O)C2=O,>57,i
COc1ccc(S(=O)(=O)NCCN2CCOCC2)c2ccccc12,x,i
CC(=O)N1CCc2cc(C(=O)CN3CCN(c4cccc(Cl)c4)CC3)ccc21,x,i
CC(C)COC(=O)Cn1cnc2ccc(Br)cc2c1=O,>57,i
COC(=O)/C(C#N)=C1/SC=C(C)N1c1ccccc1,>26,x
COc1ccc(C2CC(=O)C3=C(C2)Nc2ccccc2N(C(C)=O)C3c2ccco2)cc1 (stereo not drawn),>57,i
Cc1ccc(CNC(=O)CN2CCN(Cc3ccc(C)cc3)C2=O)cc1,>57,i
COc1cccc2c(=O)c(SC(F)(F)C(F)C(F)(F)F)c(C)[nH]c12 (stereo not drawn),>26,x
COc1ccc2[nH]c(=O)c(CN(CCc3ccccc3)Cc3nnnn3CC3CCCO3)cc2c1 (stereo not drawn),>57,i
O=C(Nc1nc2ccccc2n1CCN1CCCC1)c1ccc(Cl)cc1,x,i
CCOC(=O)N1CCN(C(=O)C2CCN(S(C)(=O)=O)CC2)CC1,>57,i
O=C(Cc1cccs1)N1CCC(c2nc3c(nnn3Cc3ccccc3)c(=O)[nH]2)CC1,>57,i
CC(C)C1N=C2c3ccccc3N=C(SCC(=O)NCCc3ccc(S(N)(=O)=O)cc3)N2C1=O (stereo not drawn),>57,i
O=C(c1cc2ccccn2n1)N1CCN(Cc2ccccc2)CC1,x,i
COc1ccc(-c2nc3cnc(N4CCOCC4)nc3n(CCc3ccccc3)c2=O)cc1,x,i
CC(=O)Nc1nnc(SCC(=O)NC(C)(C)C)s1,x,i
O=C(NC12CC3CC(CC(C3)C1)C2)c1ccccc1O,>57,i
CC(C)C(NC(=O)C12CC3CC(CC(C3)C1)C2)C(=O)O (stereo not drawn),>57,i
COc1ccc(C(=O)NC2CCN(S(=O)(=O)Cc3ccccc3)CC2)c(OC)c1,>57,u
COc1nc(-c2ccccc2)ccc1-c1noc(-c2ccco2)n1,>57,i
COC(=O)[C@@H](NC(=O)c1cc(-c2ccccc2)nc2ccccc12)c1ccccc1,x,i

# 16 entries already listed, sorted by heavy-atom count, lowest first.
SMILES,Bst PK mod,TsaE inh
CC(=O)Nc1nnc(SCC(=O)NC(C)(C)C)s1,x,i
COC(=O)/C(C#N)=C1/SC=C(C)N1c1ccccc1,>26,x
CC(C)COC(=O)Cn1cnc2ccc(Br)cc2c1=O,>57,i
O=C(Nc1ccc2c(c1)CCC2)C1COc2ccccc2O1 (stereo not drawn),>57,i
CCC(C)NC(=O)c1c(-c2cc(Cl)c(OC)c(Cl)c2)noc1C (stereo not drawn),x,i
O=C(c1cc2ccccn2n1)N1CCN(Cc2ccccc2)CC1,x,i
Cc1ccccc1CS(=O)(=O)Cc1ccc(C(=O)N2CCOCC2)o1,>57,i
Cc1ccc(CNC(=O)CN2CCN(Cc3ccc(C)cc3)C2=O)cc1,>57,i
CC(=O)N1CCc2cc(C(=O)CN3CCN(c4cccc(Cl)c4)CC3)ccc21,x,i
COc1ccc(C(=O)NC2CCN(S(=O)(=O)Cc3ccccc3)CC2)c(OC)c1,>57,u
CC1CCCCC1NC(=O)c1cn(C)c2ccc(S(=O)(=O)N3CCCC3)cc2c1=O (stereo not drawn),>57,i
O=C(Cc1cccs1)N1CCC(c2nc3c(nnn3Cc3ccccc3)c(=O)[nH]2)CC1,>57,i
COc1ccc(C2CC(=O)C3=C(C2)Nc2ccccc2N(C(C)=O)C3c2ccco2)cc1 (stereo not drawn),>57,i
COc1ccc(-c2nc3cnc(N4CCOCC4)nc3n(CCc3ccccc3)c2=O)cc1,x,i
CC(C)C1N=C2c3ccccc3N=C(SCC(=O)NCCc3ccc(S(N)(=O)=O)cc3)N2C1=O (stereo not drawn),>57,i
COc1ccc2[nH]c(=O)c(CN(CCc3ccccc3)Cc3nnnn3CC3CCCO3)cc2c1 (stereo not drawn),>57,i

# (list continues)
SMILES,Bst PK mod,TsaE inh
Cc1[nH]c2c(C)ccc(C)c2c1CC(=O)O,x,i
COc1cc(-c2cc3nc(C)c(C)c(=O)n3[nH]2)cc(OC)c1OC,>57,i
CCOc1ccc(-c2nnn(CC(=O)c3cc(OC)ccc3OC)n2)cc1,>57,i
CCc1nc(C)c(C#N)c2cc(OC)c(OC)cc12,x,i
Cc1ccc(Nc2nc3nonc3[nH]c2=O)cc1C,x,i
CCOC(=O)c1cccc(NC(=O)CSc2nnc(C)n2Cc2ccccc2)c1,>57,i
COc1ccc(C(=O)c2ccc(OC)c(N)c2)cc1N,x,i
CCOC(=O)N1CCN(c2cc(C)nc3nc(C)nn23)CC1,x,i
CN(C)c1nc(N)nc(/C(C#N)=C/C2CC3C=CC2C3)n1 (stereo not drawn),>57,i
Cc1cc(NC(=O)c2cccc(N3C(=O)CCC3=O)c2)no1,>57,i
Cc1ccc2[nH]cc(C(=O)CN3CCC4(CC3)OCCO4)c2c1,>57,i
Cc1cc(C(F)F)n2nc(C(=O)Nc3ccccc3F)nc2n1,>57,i
COC(=O)c1ccc(CN2CCN(Cc3ccc(C(=O)OC)o3)CC2)o1,>57,i
O=C(CN1CCOCC1)Nc1ccc(Oc2ccccc2)cc1,>57,i
CCN(C1CCCCC1)S(=O)(=O)c1ccc(C(=O)O)cc1,>57,i
CCOC(=O)CSc1nnc(-c2cccc(Cl)c2)n1CC,>57,i
CCOC(=O)C(NC(=O)CC)(Nc1ccccc1OC)C(F)(F)F (stereo not drawn),>57,i
COCc1[nH]nc2c1C(c1ccc(F)cc1F)C(C#N)=C(N)O2 (stereo not drawn),>57,i
COC(=O)c1ccc(CSc2nnc(N)s2)cc1,>57,i
COc1ccc(-n2c(=O)c(-c3cc(F)cc(F)c3)nc3cnc(N4CCOCC4)nc32)cc1,x,i
Cc1ccc(NC2=CC(=O)CC(c3ccco3)C2)c(N)c1 (stereo not drawn),x,i
N#CCCNC(=O)CCN1CCOCC1,>57,i
CCc1nnc(NC(=O)CCC(=O)N2CCN(CCc3ccccc3)CC2)s1,>57,i
CCOC(=O)c1c(C)oc(/N=C/c2ccccc2O)c1C#N,>57,i
O=c1[nH]c(=O)n(Cc2ccccc2)c2nc(-c3ccco3)cc(C(F)(F)F)c12,>57,i
# Following part.
SMILES,Bst PK mod,TsaE inh
Cc1ccc(NC2=NCC(=O)N2c2ccc3c(c2)OCCO3)c(C)c1,>57,i
NS(=O)(=O)c1cccc2cccnc12,u,i
CC1CCCCN1C(=O)CSc1nc(C2CC2)nc2c1cnn2-c1ccccc1 (stereo not drawn),>57,i
CCC(=O)Nc1ccc(NC(=O)c2ccccc2Cl)nc1,>57,i
CCOC(=O)C(C)n1cnc2c(nnn2-c2ccc(OC)cc2)c1=O (stereo not drawn),>57,i
Cc1ccc2c(c1)C(c1ccccc1)N(C(=O)C(C)C)CC(=O)N2 (stereo not drawn),x,i
NC(=O)c1c(-c2cccs2)csc1N,>57,i
O=c1c(Cl)c(NCCO)ncn1-c1ccccc1,>57,i
Cc1ccc2c(CN3C(=O)NC4(CCCCC4)C3=O)cc(=O)oc2c1C,x,i
COc1ccccc1C(=O)N(Cc1nc(-c2ccc(Cl)cc2)no1)C(C)C,x,i
Cc1noc(C)c1-c1ccc2ncnc(NC3CC3)c2c1,x,i
CC(OC(=O)c1cc[n+]([O-])cc1)C(=O)Nc1ccc(Cl)cn1 (stereo not drawn),>57,i
O=C(NCCC1=CCCCC1)C1CCN(c2nnc(-n3cccc3)s2)CC1,x,i
Cc1cc(C)nc(NS(=O)(=O)c2ccccc2)n1,>57,i
CCC(C)NS(=O)(=O)c1ccc(NC(=O)c2c(-c3ccccc3)noc2C)cc1 (stereo not drawn),x,i
CN(C)Cc1ccccc1-c1nc(NCc2cccs2)c2ccccc2n1,x,i
CCC(C)(C)N1CC(=O)N(Cc2ccccc2)C(c2ccc(OC)cc2)C1=O (stereo not drawn),>57,i
COc1ccc(-c2noc(CCCc3ccccc3)n2)cc1OC,>57,i
Cc1nc2ccccc2c2oc(C(=O)NCCN3CCN(C)CC3)cc12,x,i
O=C(COC(=O)C1CCN(C(=O)c2ccc(Cl)cc2)CC1)c1ccco1,u,i
O=C(Nc1ccc(F)cc1)N(CCCN1CCOCC1)Cc1cc2cc3c(cc2[nH]c1=O)OCCO3,x,i
CCOC(=O)N1CCN(C(=O)CS(=O)(=O)Cc2nc(-c3ccccc3C)oc2C)CC1,x,i
Nc1ccc(O)c([N+](=O)[O-])c1,x,i
O=C(NC1CCCCC1)C(c1ccc(Cl)cc1)N(C(=O)c1cnccn1)c1ccc2c(c1)OCO2 (stereo not drawn),>57,i
CC#C[C@@]1(O)CC[C@H]2[C@@H]3CCC4=CC(=O)CCC4=C3[C@H](c3ccc(N(C)C)cc3)C[C@]21C,x,i
